# Screening data deposited in PubChem BioAssay by PCMD.
# Calb biofilm kill: mixture kills Candida albicans biofilm cells; 120,000 compounds, 0.02% hits; C. albicans biofilm persisters + clotrimazole, fluorescence viability; primary screen in compound mixtures of four per well; inhibition, % at 7.6 µM;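 active = inhibition above 30.3% in the primary screen of four-compound pools, then above 30% when the compound was retested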;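 also: compounds exposed to preformed 24 h biofilms for 48 h; the number belongs to the whole pool; some results filed as inactive read as strong as hits; inactives centre near 12; 0% = biofilm with clotrimazole alone and 100% = kill control; retested singly at about 60 µM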
#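 Test system: C. albicans CAF4-2 wild-type biofilms; buffer or medium: RPMI/MOPS medium, pH 7.0; schedule: 24 h biofilm formation, then 48 h compound exposure, 37 °C; detection: Alamar Blue fluorescence; measure: percent inhibition of biofilm viability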
# Numbers without * were called inactive. A portion of the library; count on the stated rates, not on these rows.
# The first 4 entries (preview)
SMILES,Calb biofilm kill
COC(=O)c1cc(NC(=O)c2ccco2)ccc1N1CCOCC1,11
Cc1nc(C)c(C(=O)C2=C(O)C(=O)N(CCN(C)C)C2c2ccco2)s1 (centres undefined),21
Cc1cc(C)n(Cc2cnc(N3CCOCC3)s2)n1,6
CCSc1nnc(-c2ccccc2N=Cc2c(C)[nH]n(-c3ccccc3)c2=O)c(=O)[nH]1,8

# Results, previewed entries included:
SMILES,Calb biofilm kill
COC(=O)c1cc(NC(=O)c2ccco2)ccc1N1CCOCC1,11
Cc1nc(C)c(C(=O)C2=C(O)C(=O)N(CCN(C)C)C2c2ccco2)s1 (centres undefined),21
Cc1cc(C)n(Cc2cnc(N3CCOCC3)s2)n1,6
CCSc1nnc(-c2ccccc2N=Cc2c(C)[nH]n(-c3ccccc3)c2=O)c(=O)[nH]1,8
CCOC(=O)c1cc2occc2n1CC(=O)NCCOC,8
CCOC(=O)C1=C(Nc2ccc(OC)cc2)OCC1=O,22
Cc1cccc(Nc2nnc(SCC(=O)Nc3ccccc3[N+](=O)[O-])s2)c1,-2
Cc1ccc(S(=O)(=O)N2CCN(CC(=O)N(CC(C)C)c3c(N)n(CC(C)C)c(=O)[nH]c3=O)CC2)c(C)c1,11
Cc1ccc(N2C(=O)C(Cc3ccc(O)cc3)NC2=S)cc1C (centres undefined),7
Cn1c(NNC(=O)C2CCCCC2)cc(=O)n(C)c1=O,-4
Cc1c(Nc2ccc(C=O)cc2)c(=O)n(-c2ccccc2)n1C,-17
NS(=O)(=O)c1ccc(NC(=S)Nc2nn(Cc3ccc(Cl)cc3Cl)cc2Cl)cc1,13
COc1ccccc1NC(=O)Nc1nnc(CC(=O)Nc2cccc(C)c2)s1,19
COc1ccc(C(C(=O)NC2CCCC2)N(Cc2cccs2)C(=O)c2ccn[nH]2)cc1OC (centres undefined),-6
COc1ccc(C(=O)/C=C/C(=O)N(CC(=O)NC2CCCCC2)Cc2cccs2)c(O)c1,6

# Sorted by molecular weight (ascending): some entries from above.
SMILES,Calb biofilm kill
Cc1c(Nc2ccc(C=O)cc2)c(=O)n(-c2ccccc2)n1C,-17
CCSc1nnc(-c2ccccc2N=Cc2c(C)[nH]n(-c3ccccc3)c2=O)c(=O)[nH]1,8
NS(=O)(=O)c1ccc(NC(=S)Nc2nn(Cc3ccc(Cl)cc3Cl)cc2Cl)cc1,13

# Next records.
SMILES,Calb biofilm kill
CCCCC(=O)N=c1sc2cc([N+](=O)[O-])ccc2n1C,12
CCOC(=O)C1CCN(C(=O)Cc2cccc3ccccc23)CC1,9
Cc1ccc(SCC(=O)Nc2ccc3c(c2)C(=O)NC3=O)cc1,20
O=C(Nc1ccc(O)c2c(=O)cc(-c3ccccc3Cl)oc12)c1ccccc1Cl,11
O=C(CN1CCCC1)NC(=O)NC1CCCC1,4
COc1ccc(CNC(=O)c2ccc(-c3ccccc3)cc2)cc1OC,12
NC(=S)Nc1ccc(C(F)(F)F)cc1Cl,11
CCCc1nn(C)c(C(=O)Nc2ccc(Cl)cc2)c1Cl,14
CCOc1ccc(NC(=NCc2ccc3c(c2)OCO3)SC2CC(=O)N(c3ccccc3)C2=O)cc1 (centres undefined),-7
Cc1cc(Cl)cc(Cl)c1OCCCCN(C)C,15
O=C(CCn1c(=O)c2ccccc2n(Cc2ccccc2)c1=O)NC1CCN(Cc2ccccc2)CC1,9
O=C(NCc1ccco1)/C(=C\c1cccs1)NC(=O)c1ccco1,15
O=C(Nc1ccccc1)c1ccc(C(=O)Nc2ccccc2)nc1,7
COc1ccc(-c2nn(-c3ccccc3)cc2/C=C/C(=O)OCC(=O)Nc2ccc(C#N)cc2)cc1,11
COc1ccc(S(=O)(=O)NCCOc2ccccc2)cc1C,29
CCCCOc1ccc(-c2cn3ccccc3n2)cc1[N+](=O)[O-],12
Cc1ccccc1C(=O)c1cccn1CC(=O)NCc1ccccc1,4
COc1cc(OC)c2ccc(=O)oc2c1C(CC(=O)N1CCN(c2ccccc2)CC1)c1ccc2c(c1)OCO2 (centres undefined),7
CSC1=N/C(=C/c2cccnc2)C(=O)N1Cc1ccccc1,11
CCOC(=O)N1CCC(N(CCN(C)C)C(=S)Nc2cccc(C)c2)CC1,9
C/C=C(/C)C(=O)O[C@@H]1c2cc3c(c(OC)c2-c2c(cc(OC)c(OC)c2OC)[C@@H](OC(C)=O)[C@@H](C)[C@H]1C)OCO3,18
COC(=O)c1cc2cc(Cl)ccc2nc1SC,17
Cc1oc(-c2ccccc2Cl)nc1CSc1nc2c(c(=O)[nH]1)CCCC2,17
O=C1CC(=O)Nc2cc(S(=O)(=O)N3CCN(c4cccc(C(F)(F)F)c4)CC3)ccc2N1,13
Cn1ccc(=S)c2ccccc21,7
C/C(=N\Nc1cccc(Cl)c1)c1ccncc1,3
CN(CC(=O)NCc1ccncc1)S(=O)(=O)c1ccc(Cl)cc1,11
CCOc1ccc(N2C(=O)CC(N(C)Cc3ccccc3)C2=O)cc1 (centres undefined),6
COc1ccc(NC(=O)OCCN2CCN(Cc3ccccc3)CCC2=O)cc1,14
Cc1ccc(S(=O)(=O)NNC(=S)Nc2cccc(F)c2)cc1,21
CC(C(=O)OCC(=O)Nc1cccc(S(=O)(=O)N(C)C)c1)N1C(=O)c2ccccc2C1=O (centres undefined),19
CS(=O)(=O)N(CC(=O)NC1CCCCC1)c1cccc(F)c1,9
OCC(O)CNC(=S)NC1CCCCC1 (centres undefined),7
N/C(=N\N=C\c1ccc(Br)o1)c1nonc1N,12
COc1ccccc1-n1cc(C(=O)N2CCCC(CO)(Cc3ccccc3C)C2)cn1 (centres undefined),14
COc1cc(C(=O)NCC(=O)OCc2cc(=O)oc3c(C)c(C)ccc23)cc(OC)c1OC,20
CCOc1ccc2c(c1)C(c1ccccc1)=NNC(c1ccccc1)=N2,25
CCn1cc(C(=O)O)c(=O)c2cc(F)c(N3CCN(C(=S)NC(=O)c4cccc(F)c4)CC3)cc21,0
C[n+]1ccc(CC2C(=[N+]([O-])[O-])C=Nc3ncnn32)cc1 (centres undefined),7
CC(C)(C)c1cc(-c2csc(Nc3ccccc3)[n+]2Cc2ccc(C(=O)O)cc2)cc(C(C)(C)C)c1O,26
C=CCNC(=S)N/N=C/c1ccc(C)cc1C,3
Cn1c(=O)n(C)c2cc([N+](=O)[O-])c(N3CCN(S(C)(=O)=O)CC3)cc21,12
COc1ccc(N(C(=O)c2ccccc2C)S(=O)(=O)c2cccs2)cc1,13
O=C1NC(=Nc2ccccc2)CS1,1
COCCn1c(C)cc(/C=C2/NC(=O)N(c3ccc(Cl)cc3)C2=O)c1C,17

# Look-ups from the results shown:
# COCCn1c(C)cc(/C=C2/NC(=O)N(c3ccc(Cl)cc3)C2=O)c1C in Calb biofilm kill reads 17
# CC(C(=O)OCC(=O)Nc1cccc(S(=O)(=O)N(C)C)c1)N1C(=O)c2ccccc2C1=O (centres undefined) in Calb biofilm kill reads 19
# OCC(O)CNC(=S)NC1CCCCC1 (centres undefined) in Calb biofilm kill reads 7
# C=CCNC(=S)N/N=C/c1ccc(C)cc1C in Calb biofilm kill reads 3
# CS(=O)(=O)N(CC(=O)NC1CCCCC1)c1cccc(F)c1 in Calb biofilm kill reads 9

# (next part)
SMILES,Calb biofilm kill
COCCNC(=O)CSc1nnc(CCCN2C(=O)c3cccc4cccc(c34)C2=O)n1-c1ccccc1,1
CCCS(=O)(=O)N1CCN(c2cc3c(cc2[N+](=O)[O-])n(C)c(=O)n3C)CC1,21
COC(=O)Cc1nnc(Nc2cccc(C)c2)c2ccccc12,9
CN1C(=CC=C2C=C(I)C(=O)C(I)=C2)C(C)(C)c2ccccc21,17
O=C(NC1CCCCC1)N1CCCC(CNS(=O)(=O)Cc2ccccc2)C1 (centres undefined),2
O=C(C1CCN(S(=O)(=O)c2cccc3cccnc23)CC1)N1CCN(C2CCCC2)CC1,15
O=c1c(Cc2ccccc2)c(O)ccn1C1CCCCCCC1,14
C/C(=N\N1CCN(Cc2ccccc2Cl)CC1)c1ccc([N+](=O)[O-])cc1,23
S=c1[nH]nc(Nc2cccc(Cl)c2)s1,2
N#CC1=C(S)N(c2ccccc2)C(c2ccco2)NC1=O (centres undefined),23
CN(CC(=O)O)S(=O)(=O)/C=C/c1ccccc1,10
CC(C)(C)c1ccc(-c2nc(N)nc(N)n2)cc1,23
CN(C)NC(=O)c1ccsc1NC(=O)c1ccc(S(=O)(=O)N2CCCC2)cc1,15
CCc1ccc(NC2=NCC(c3ccccc3)S2)cc1 (centres undefined),5
COc1cc(OC)c2ccc(=O)oc2c1C(CCN1CCCCC1)c1ccc(N(C)C)cc1 (centres undefined),13
CCCOc1ccc(/C=N\NC(=O)CCc2n[nH]c(=O)[nH]c2=O)cc1OC,35
CCCCCC(=O)NNC(=O)Cc1ccc([N+](=O)[O-])cc1,8
O=C(NCc1ccncc1)C(=O)NCC(c1ccccc1)c1ccccc1,15
Cc1ccc(OCCOc2ccc(Br)cc2/C=N\NC(N)=O)cc1,-2
COc1ccc(Oc2cccc(Cl)c2CNC(=O)CCCC(=O)O)cc1,10
COc1ccccc1N(C)S(=O)(=O)c1ccc(C(=O)OCC(=O)NCc2cccs2)cc1,23
Cc1cccc(CNc2ccc(C(CC(N)=O)NC(=O)c3ccccc3)cc2[N+](=O)[O-])c1 (centres undefined),14
CC(C)CCN1CCC(N)=NC1=O,2
O=C(NCC(O)c1ccc([N+](=O)[O-])cc1)c1cccc(S(=O)(=O)N2CCCC2)c1 (centres undefined),4
COc1cccc(NC(=O)CSc2ncc(S(=O)(=O)c3ccccc3)c(=O)[nH]2)c1,18
O=C(CSCc1ccccc1Cl)NCCSc1ccccn1,24
Cc1cccc(OCc2nc3c4c(ncn3n2)-c2ccccc2CC42CCCC2)c1,11
ClC(Cl)c1nnc(-c2ccccc2)c(-c2c[nH]c3ccccc23)n1,15
COc1cc(/C=N/NC(=O)c2ccccc2Cl)ccc1Oc1ccc([N+](=O)[O-])cn1,7
Cc1cc(NS(=O)(=O)c2ccc(NC(=O)CCSc3ccc(F)cc3)cc2)nc(C)n1,33
C=C1SC(=Nc2c(C)cc(C)cc2C)N(C(=O)c2sc3ccccc3c2Cl)C12CCCCC2,9
Cc1ccc(Cl)cc1N1CCN(C(=O)CSc2nnc3n2C(C)(C)Cc2ccccc2-3)CC1,21
Cc1ccc(NC(=O)c2ccn(C(=O)Nc3ccccc3)n2)c(C)c1,5
O=C1CC(c2ccccc2Cl)=NN(c2ncnc3ccccc23)C1=O,9
CC1Cc2ccccc2N1CC(=O)Nc1ccc(S(N)(=O)=O)cc1 (centres undefined),13
CCOc1ccc2nc(SCC(=O)N3c4ccccc4Sc4ccccc43)c(C#N)cc2c1,-5
O=C(Nc1ccc([N+](=O)[O-])cc1)C1CC1(c1ccccc1)c1ccccc1 (centres undefined),25
CCOC(=O)c1c(C)[nH]c(C)c1C(=O)CSc1nc2ccccc2[nH]1,-4
Cc1ccc(NC(=O)COC(=O)CNC(=O)c2ccc(C)s2)cc1,12
Cc1cc(C)cc(OCC(=O)Nc2cc(C)on2)c1,17
Cc1ccc(C(=O)Nc2cccc3ncccc23)cc1[N+](=O)[O-],-1
CCC1=NN2C(=N)/C(=C/c3cc(C)n(-c4ccccc4)c3C)C(=O)N=C2S1,16
COc1cc(/C=N/NC(=O)CC2C(=O)NN=C2C)ccc1O (centres undefined),-1
CC(=O)c1cccc(NC(=S)N2CCN(CCN3C(=O)c4cccc5cccc(c45)C3=O)CC2)c1,21
COc1cc(OC)c(/C=N/NC(=O)c2ccc(NC(C)=O)cc2)cc1Br,16
O=[N+]([O-])c1ccc(OCc2nnc(-c3ccccc3)o2)cc1,7
CCN(CC)CCN(C(=O)c1ccc(CN2CCCCC2)o1)C(C(=O)NC1CCCCC1)c1ccc(F)cc1 (centres undefined),8
Nc1ccc(Cl)c(S(=O)(=O)Nc2ccccc2Cl)c1,15
COc1cccc2cc(/C(=N/O)c3ccc(Br)cc3)oc12,12
O=C(CSCCO)Nc1cccc([N+](=O)[O-])c1,11
O=C(O)CCCN1C(=O)C(=O)/C(=C(/O)c2ccc(Cl)cc2)C1c1ccccc1 (centres undefined),24
COc1cccc(CNC(=O)CCC2CCCN(C(=O)c3cc4ccccc4o3)C2)c1 (centres undefined),4
COc1ccc(C)cc1-n1[nH]nnc1=S,7
FC(F)(F)c1cccc(NC(=S)Nc2cccc(NC(=S)Nc3cccc(C(F)(F)F)c3)n2)c1,15
COC(=O)CCCC1=CC2=CC(=O)C(C)(OC(=O)c3cccs3)C(=O)C2=CN1CC(C)C (centres undefined),17
O=C1CC(N2CCSCC2)C(=O)N1c1ccc(Br)cc1 (centres undefined),15
CC(C)c1ccccc1NC(=O)CNC(C)c1ccc(F)cc1 (centres undefined),5
Cn1cc(NC(=O)OCc2ccc(Cl)cc2)c(C(F)(F)F)n1,11
CC(C)(C)NC(=O)Cn1nnc(-c2ccccc2NC(=O)c2ccco2)n1,12
CCOC(=O)C(CCCCC(NC(C)=O)(C(=O)OCC)C(=O)OCC)(NC(C)=O)C(=O)OCC,23

# Among those listed so far, these contain a tert-butyl group.
SMILES,Calb biofilm kill
CC(C)(C)c1cc(-c2csc(Nc3ccccc3)[n+]2Cc2ccc(C(=O)O)cc2)cc(C(C)(C)C)c1O,26
CC(C)(C)c1ccc(-c2nc(N)nc(N)n2)cc1,23
CC(C)(C)NC(=O)Cn1nnc(-c2ccccc2NC(=O)c2ccco2)n1,12

# Other records:
SMILES,Calb biofilm kill
Cc1ccc(SCCC(=O)OCC(=O)NCC2CCCCC2)cc1,11
Cn1cc(/C=N/NC(N)=S)c2ccccc21,21
Cc1nc(COc2cccc(Cl)c2)sc1C(=O)/C=C/N(C)C,18
CC(C)(C)C(=O)Nc1ccc(NC(=O)C(C)(C)C)cc1,3
CCCc1cc(=O)[nH]c(SCC(=O)N2CCN(S(=O)(=O)c3ccc(Cl)cc3)CC2)n1,6
COc1ccccc1N(C(C)=O)c1nc(C)cc(C)c1C#N,20
C#CCNc1ccc([N+](=O)[O-])cc1,12
Cc1ccccc1OCc1n[nH]c(=S)n1Cc1ccccc1,8
COc1cc(NC(=O)COC(=O)CNS(=O)(=O)c2ccc(F)c(F)c2F)cc(OC)c1,4
